Screens deposited in PubChem BioAssay by several laboratories.
Sa ugtP lethal = kills S. aureus RN4220 lacking UgtP. S. aureus RN4220 ugtP deletion, OD600 growth, 16 h; some inactives read as strong as hits. actives 0.54% (n = 330,000). growth inhibition, % (no concentration beside the values);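 active means z-score under -3 and OD600 up to 0.15 on both plates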;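 further: plate controls were untreated wells for no effect and antibiotic for full effect; wells of about 80 µL received 100 nL stock; the first replicate is given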
Bead autofluor = counter-screen for toxin protease inhibitors: compound fluorescence | compound autofluorescence counterscreen, microsphere flow cytometry; active compounds read high | fluorescence intensity (no concentration beside the values) | actives 3.1% (n = 360,000);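 active means at least 3 SD above the mean of all compounds, about 16000 in these data; inconclusive means too few beads counted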;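 further: 100 nL of 1 mM stock went into each well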
PrP UTR inh = suppresses PrP 5' UTR mRNA reporter expression | cell-based PrP 5' UTR mRNA reporter, plate reader | inhibition, % (no concentration beside the values) | actives 0.35% (n = 340,000);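 active means every replicate at 50% or more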;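 further: 0 = median of the neutral control wells; tested in H4 reporter cells; numbers are from one replicate; inactives centre near -14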
BJeLR lethal = kills HRASV12-expressing BJeLR cells; actives 0.17% (n = 300,000); BJeLR (HRASV12) viability, CellTiter-Glo ATP luminescence, 48 h; reference of the scale not given here; inhibition, % (concentration not given with the values); AID 1554;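 active means replicate mean above 50%; inconclusive means above 50% but judged a plate artefact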;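 further: 50 nL library stock added to about 25 µL; numbers are from one replicate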
Mtb hypoxia inh = inhibitors of hypoxia-regulated fluorescent reporter in Mycobacterium tuberculosis; fluorescence inhibition, % (no concentration beside the values); actives 0.1% (n = 300,000); M. tuberculosis hypoxia-regulated fluorescent reporter, fluorescence;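 active means 35 to 45% if threefold the growth effect, above 45% if 1.5-fold the growth effect; inactive means the rest, general growth blockers included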;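 further: wells of about 50 µL received 100 nL stock; 0% = vehicle wells and 100% = reference inhibitor wells; whole bacteria with a GFP reporter of the hypoxia response; strong numbers were not always called active; many hits fall short of the cut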
RN4220 kill = S. aureus RN4220 growth inhibition; actives 0.33% (n = 330,000); OD600, 16 h; inhibition, % (concentration not given with the values);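 active means z-score of -3 or lower and OD600 up to 0.18 on both plates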;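 further: plate controls were untreated cells for no effect and reference antibiotic for full effect; stock transfer was 100 nL into about 80 µL; one replicate is shown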
Mtb hypoxia inh growth = second read-out of Mtb hypoxia inh, no call of its own (marks repeat the call); growth inhibition, %; measured here: M. tuberculosis growth (absorbance);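 0% = vehicle and 100% = reference antibiotic; read after six days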
* = called active by the depositor; ? = inconclusive; / = not tested or not shown; & = joins results of further samples.

SMILES	Sa ugtP lethal	Bead autofluor	PrP UTR inh	BJeLR lethal	Mtb hypoxia inh	Mtb hypoxia inh growth	RN4220 kill
Cc1noc(C)c1COc1ccccc1C(=O)NNC(=O)c1ccccc1	3	?	-18	1	10	3	-0.2
OC1C2(Cc3ccccc3)CN3CCN(C2)CC1(Cc1ccccc1)C3 (stereo not drawn)	16	3013	-38	-17	11	4	2.2
O=[N+]([O-])c1ccc(O)c(C(C#Cc2ccccc2)N2CCOCC2)c1 (stereo not drawn)	6	5245	-33	2	12	-2	1.6
CCN(CC)CCCNC(=O)C1CCCN(c2nnc(N3CCCC3=O)s2)C1 (stereo not drawn)	6	?	-22	-1	13	11	3.7
COc1ccc(-c2sc3ccc(-c4ccc5c(c4)OCO5)cc3c2-c2ccc(OC)nc2)cc1	12	3999	-15	/	5	1	-0.9
COC(=O)Cn1c2[n+](c3ccccc31)CC(O)CS2 (stereo not drawn)	5	2700	-32	-6	/	/	3.6
Cc1ccc(-c2cc(C(=O)NN=Cc3c(C)nn(-c4ccccc4)c3C)n[nH]2)s1	-2	/	/	/	-4	4	6.8
CCOC(=O)CNS(=O)(=O)Cc1ccccc1	-2	3562	2	/	12	4	8.2
COc1ccc(C[C@H]2CN3C(=NC[C@@H]3Cc3ccccc3)N2CCNC(=O)CCC2CCCCC2)cc1	/	3036	-10	-4	/	/	/
COc1ccc(C)cc1NC(=O)CN1CCN(CC(=O)Nc2ccccc2F)CC1	3	4462	-15	6	/	/	3.7
COC(=O)Cn1c(=NC(=O)c2cccc(OC)c2)sc2cc(OC)ccc21	-5	2218	-33	7	-6	5	-4.8
COc1ccccc1NC(=O)CN1CCCCCC1	8	5936	-17	-9	-6	8	5.0
O=c1[nH]c2cc3c(cc2cc1CN(Cc1nnnn1C1CCCC1)C1CCCC1)OCCO3	-1	7820	0	-18	10	5	5.0
COc1ccc(S(=O)(=O)N2CCCCCC2)cc1C(=O)NCCc1ccccc1	5	/	-10	/	8	0	3.8
Cc1oc2ccc(OCc3cccc(Cl)c3)cc2c1C(=O)O	-10	3748	-22	5	-7	6	10
Cc1c([N+](=O)[O-])cc(C(=O)NCc2ccc(F)cc2)cc1[N+](=O)[O-]	-7	4468	-20	-1	/	/	1.0
CCC(C)=C1SC(N2CCN(C(C)=O)CC2)=NC1=O	-9	/	/	/	-4	-5	-1.8
CCOC(=O)C1CCN(S(=O)(=O)c2cc(Br)cc3c2N(C(C)=O)C(C)C3)CC1 (stereo not drawn)	-3	3690	-4	1	12	13	7.6
Cn1c(O)c(N=NC(=O)c2ccco2)c2ccccc21	5	1998	-59	-2	5	-1	10.0
Nc1nc(N2CCCCC2)c(C=O)c(N2CCCCC2)n1	1	5145	-10	-2	-5	5	3.5
CCN(CC(=O)NC(C)C)C(=O)Cc1ccc(C)c(C)c1	-1	4338	-14	-7	-7	10	5.8
Cc1ccc(OCc2cc(C(=O)N(C)Cc3cc(C4CC4)n[nH]3)no2)cc1C	-10	5499	-32	4	-6	6	8.2
C=C(C)C1CC=C(C)/C(=N/NC(=O)c2ccoc2C)C1 (stereo not drawn)	/	2240	-15	4	/	/	/
CSc1ccc(NC(=O)NCCN2CCc3ccccc3C2)cc1	-7	9925	-25	-3	6	8	0.7
O=C1c2ccccc2C(=O)c2c1cccc2N1CCN(Cc2ccccc2)CC1	-7	8875	-15	-1	8	18	6.4
COc1ccc(C=Nn2c(=S)n(C)c3ccccc32)cc1OC	-7	/	/	/	1	9	3.3
COc1ccc(-c2nnc(SCc3ccc(C(=O)O)cc3)o2)cc1OC	8	3220	-8	-2	-1	-9	2.6
COc1ccc(-n2nc(C(=O)NCC(=O)NCC3CCCO3)c3ccccc3c2=O)c(OC)c1 (stereo not drawn)	-4	9287	-26	-8	2	4	-1.6
O=C(c1cc(COc2ccc(F)cc2F)on1)N1CCN(C(=O)c2ccco2)CC1	2	6611	-13	-2	5	6	8.9
COc1cc(NC(=O)c2ccccc2F)c(OC)cc1NC(=O)CN1CCOCC1	5	3302	-41	-20	20	13	-17
CC(C)c1ccccc1-n1c(SCc2cc(=O)oc3ccc4ccccc4c23)nnc1-c1cccnc1	-2	2670	-6	-19	7	10	-3.2
CC(=O)C(C[N+]1(C)CCCCC1)=NO	11	/	/	/	9	-2	1.4
Cc1cc(C)n2nc(SCC(=O)c3cc(C)n(-c4cc(C)on4)c3C)nc2n1	-11	9847	-14	-1	8	4	15
Cc1nc(-c2ccc([N+](=O)[O-])cc2)c(-c2ccccc2)o1	18	3627	-17	3	13	-1	7.6
O/N=C1\CCC\C1=C/c1ccco1	/	10615	-25	5	/	/	/
CCCOc1ccc(C(=O)Nc2ccc(S(=O)(=O)N3C[C@@H]4C[C@@H](C3)c3cccc(=O)n3C4)cc2)cc1	10	5095	-13	/	5	13	3.3
CCn1cc(Br)c(C(=O)NN)n1	-6	3532	3	12	/	/	-4.7
COc1ccccc1N1CCN(CCNC(=O)Nc2cccc(C)c2C)CC1	-1	3898	3	-9	1	10	-0.7
Cc1ccc(OCCn2ccnc2)c([N+](=O)[O-])c1	1	3454	-18	3	7	5	-2.6
COc1ccc(C(=O)N2CCCC(N3CCN(c4ccccc4OC)CC3)C2)c(OC)n1 (stereo not drawn)	4	5342	-9	1	7	6	1.0
Cc1ccc(NC(=O)CSc2nnc(N=CN(C)C)s2)cc1	-3	/	/	/	-1	2	-1.6
COc1cccc(CNC(=O)COc2cccc3c2OC(C)(C)C3)c1	8	?	-2	-7	14	4	4.1
Cc1ccc(S(=O)(=O)N2CCN(CC(=O)NN=C/C(Cl)=C/c3ccccc3)CC2)cc1	5	/	/	/	9	1	3.1
COc1ccc(C(=O)c2no[n+]([O-])c2C(=O)c2ccc(OC)cc2)cc1	4	2443	-19	-8	/	/	5.4
COCCN(C(=O)c1csnn1)C(C(=O)NC(C)(C)C)c1cccc(OC)c1 (stereo not drawn)	1	3788	-16	-11	7	11	5.8
CCOc1ccccc1OCC(=O)Nc1cccc(S(=O)(=O)N2CCCCCC2)c1	-2	?	-12	-9	-8	-4	13
COc1ccc(S(=O)(=O)Nc2ccc(NC(C)=O)cc2)cc1	1	23841*	-4	16	2	14	-1.3
O=C(CCc1nc2ccccc2c(=O)[nH]1)N1CCN(S(=O)(=O)c2ccc(F)cc2)CC1	-1	4048	-10	/	4	0	2.4
O=C(c1ccco1)N1CCN(C(c2cccs2)c2sc3ncnn3c2O)CC1 (stereo not drawn)	-6	5724	-28	0	4	8	-8.8
O=C(Cc1ccc(Cl)cc1Cl)OCC(=O)N1CCN(C(=O)c2ccco2)CC1	1	2571	-29	0	4	13	3.0
CCOc1cc(/C=N/n2cnnc2)ccc1OS(=O)(=O)c1ccccc1	/	2263	-27	-4	/	/	/
CCN(CC)S(=O)(=O)c1ccc2c(c1)CC(C(=O)N1CCCC1)N2C(C)=O (stereo not drawn)	-2	3288	-22	9	13	2	2.3
COc1ccc(C(=O)Nc2ccccc2)cc1S(=O)(=O)Nc1cc(C)on1	1	4392	-9	-4	-4	7	1.7
Cc1ccc(S(=O)(=O)NCCOCCNS(=O)(=O)c2ccc(C)cc2)cc1	-3	16362*	-5	-6	-1	2	-0.1
O=C(NCCC(=O)N(Cc1ccco1)Cc1cccs1)c1ccc(Br)cc1	3	3780	-13	/	6	5	4.2
CCC(=O)Nc1nnc(C)s1	-3	2945	-13	12	1	1	-13
C[C@H]1C(c2ccc(F)cc2)=NN(c2ccccc2)[C@@H]1CO	-11	3662	-21	/	2	-3	-6.4
CC(OC(=O)CCCN=C1NS(=O)(=O)c2ccccc21)C(=O)NC1CCCCC1C (stereo not drawn)	18	5683	-10	-2	12	0	3.3
COc1cc(C(=O)NCCN2C(=O)S/C(=C\c3ccc(F)cc3)C2=O)ccc1OCC(=O)N1CCOCC1	4	/	/	10	4	-3	8.1
CCOC(=O)C1C2COc3cc(OC)ccc3C2N2C(=O)N(c3ccc(Br)cc3)C(=O)[C@]12C (stereo partly drawn)	-2&2	/	/	/	1&0	6&8	-2.4&2.2

Not a retest: two of the compounds above.
SMILES	Sa ugtP lethal	Bead autofluor	PrP UTR inh	BJeLR lethal	Mtb hypoxia inh	Mtb hypoxia inh growth	RN4220 kill
Cc1ccc(S(=O)(=O)NCCOCCNS(=O)(=O)c2ccc(C)cc2)cc1	-3	16362*	-5	-6	-1	2	-0.1
O=C(NCCC(=O)N(Cc1ccco1)Cc1cccs1)c1ccc(Br)cc1	3	3780	-13	/	6	5	4.2

Already shown: 11 of the compounds above.
SMILES	Sa ugtP lethal	Bead autofluor	PrP UTR inh	BJeLR lethal	Mtb hypoxia inh	Mtb hypoxia inh growth	RN4220 kill
COc1ccccc1NC(=O)CN1CCCCCC1	8	5936	-17	-9	-6	8	5.0
O=c1[nH]c2cc3c(cc2cc1CN(Cc1nnnn1C1CCCC1)C1CCCC1)OCCO3	-1	7820	0	-18	10	5	5.0
COc1ccc(S(=O)(=O)N2CCCCCC2)cc1C(=O)NCCc1ccccc1	5	/	-10	/	8	0	3.8
Cc1oc2ccc(OCc3cccc(Cl)c3)cc2c1C(=O)O	-10	3748	-22	5	-7	6	10
Cc1c([N+](=O)[O-])cc(C(=O)NCc2ccc(F)cc2)cc1[N+](=O)[O-]	-7	4468	-20	-1	/	/	1.0
CCC(C)=C1SC(N2CCN(C(C)=O)CC2)=NC1=O	-9	/	/	/	-4	-5	-1.8
CCOC(=O)C1CCN(S(=O)(=O)c2cc(Br)cc3c2N(C(C)=O)C(C)C3)CC1 (stereo not drawn)	-3	3690	-4	1	12	13	7.6
Cn1c(O)c(N=NC(=O)c2ccco2)c2ccccc21	5	1998	-59	-2	5	-1	10.0
Nc1nc(N2CCCCC2)c(C=O)c(N2CCCCC2)n1	1	5145	-10	-2	-5	5	3.5
CCN(CC(=O)NC(C)C)C(=O)Cc1ccc(C)c(C)c1	-1	4338	-14	-7	-7	10	5.8
Cc1ccc(OCc2cc(C(=O)N(C)Cc3cc(C4CC4)n[nH]3)no2)cc1C	-10	5499	-32	4	-6	6	8.2

The results go on.
SMILES	Sa ugtP lethal	Bead autofluor	PrP UTR inh	BJeLR lethal	Mtb hypoxia inh	Mtb hypoxia inh growth	RN4220 kill
O=C(CN1C(=O)CCS(=O)(=O)c2ccccc21)NCCc1ccccc1	0	5672	-17	-5	10	-9	1.8
S=C(Nc1ccc2nsnc2c1)N1CCCCC1	4	2119	-76	/	12	11	3.6
CC(=O)Nc1ccccc1NC(=O)CC(C)=NNC(=O)c1ccncc1	-5	/	/	/	/	/	2.8
CC(/C=C/C(=O)c1ccc(C)cc1)=C\c1ccccc1	17	2899	-55	2	/	/	10.0
CCCCn1c(N)c(N(CC(C)C)C(=O)c2cccc(S(=O)(=O)N3CCN(C)CC3)c2)c(=O)[nH]c1=O	11	6729	-11	2	-5	-3	2.9
COc1ccc(NC(=O)C(NS(=O)(=O)c2ccc3c(c2)CCCN3C(C)=O)C(C)C)c(OC)c1 (stereo not drawn)	-2	9257	-7	3	-2	7	-1.0
CC(=O)NCc1ccc(S(=O)(=O)NN=Cc2ccc(Br)cc2)cc1	9	/	/	/	-1	-1	0.0
O=C1c2ccccc2NC2(CCCC2)N1N=C1CCCC1	6	1986	-12	-1	3	6	4.2
Cc1ccc(SCCSc2ncccn2)cc1	19	4177	-47	-4	-3	9	12
Cn1c(COc2ccc(Cl)cc2)nnc1SCC(=O)NC1CCCCC1	-1	11032	-3	-2	1	4	0.2
CC(C)C1Nc2ccc(S(=O)(=O)N3CCOCC3)cc2NC1=O (stereo not drawn)	-8	2223	-15	-3	-2	6	-3.0
CC(=O)Oc1cc(C)cc2oc(=O)cc(-c3ccccc3)c12	3	4231	-19	-4	6	-1	5.8
Cc1[nH]n2c(=O)c3c(nc2c1-c1cccc2ccccc12)CCC3	-14	8743	-4	9	3	6	-1.8
Cc1ccc(CNC(=O)C2COc3ccccc3O2)cc1 (stereo not drawn)	8	4094	-37	3	/	/	1.1
Nc1nc(SCC(=O)c2cccs2)n[nH]1	4	3137	-7	-10	2	8	3.1
N#CC1(Nc2ccc(Br)cc2)CCCC1	-1	4060	-23	/	17	1	-2.9
Cc1ccsc1/C=N/N1CCN(C2c3ccccc3-c3ccccc32)CC1	/	2754	-8	-4	/	/	/

No enrichment for hits (roughly 4% active in at least one column).
